Biofilm kill mix – mixtures killing C. albicans biofilm; C. albicans biofilm persisters + clotrimazole, fluorescence viability; primary screen in compound mixtures of four per well; inhibition, % at 7.6 µM; hit rate 0.02% among 120,000;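 active = inhibition above 30.3% in the primary screen of four-compound pools, then above 30% when the compound was retested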;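 note: compounds exposed to preformed 24 h biofilms for 48 h; the number belongs to the whole pool; some results filed as inactive read as strong as hits; inactives centre near 12; 0% = biofilm with clotrimazole alone and 100% = kill control; retested singly at about 60 µM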
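Test system: C. albicans biofilms. Buffer or medium: RPMI/MOPS medium, pH 7.0. Timing: 48 h compound exposure at 37 °C. Technique: Alamar Blue fluorescence. Evaluation: percent inhibition of biofilm viability.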
The depositor's hits bear a star. Some of the compounds tested; the hit share may differ from the screen's.

Start of the listing, in advance:
Structure	Biofilm kill mix
N#Cc1ccc(C(=O)Nc2cccc(NC(=O)c3ccco3)c2)c(F)c1	4
CCN(CC)S(=O)(=O)c1cccc(C(=O)NCc2ccccc2)c1	11
Cc1cccc(OCC(=O)NN2C(=O)C3C4C=CC(O4)C3C2=O)c1 (stereo not drawn)	-2
O=C(O)C(NS(=O)(=O)c1ccc(F)cc1)c1ccccc1 (stereo not drawn)	23

Main list, from the start:
Structure	Biofilm kill mix
N#Cc1ccc(C(=O)Nc2cccc(NC(=O)c3ccco3)c2)c(F)c1	4
CCN(CC)S(=O)(=O)c1cccc(C(=O)NCc2ccccc2)c1	11
Cc1cccc(OCC(=O)NN2C(=O)C3C4C=CC(O4)C3C2=O)c1 (stereo not drawn)	-2
O=C(O)C(NS(=O)(=O)c1ccc(F)cc1)c1ccccc1 (stereo not drawn)	23
CSC1=NC(C)N2C(SC)=NC(C)N12 (stereo not drawn)	19
O=C(c1ccccc1)N1CCCCCC1	19
Cc1ccc(N=Cc2c(C)[nH]n(-c3nc4ccccc4[nH]3)c2=O)cc1	19
O=C(N1CCN(CCO)CC1)N1c2ccccc2CCc2ccccc21	23
COc1ccc(C2NC(=O)NC(C)=C2C(C)=O)cc1 (stereo not drawn)	19
CC(=O)c1ccc(N2CCN(S(=O)(=O)c3c(C)[nH]c(=O)[nH]c3=O)CC2)cc1	17
CCN1CCN(CC(O)COCc2cc(OC)c(OC)c(OC)c2)CC1 (stereo not drawn)	7
Fc1ccc(NC(=S)NN2CCOCC2)cc1Cl	23
CCOC(=O)c1ccc(N2C(=O)CC(C)(CC)CC2=O)cc1	18
CCCCNC(=O)C1CC(c2ccc(C(F)(F)F)cc2)=NO1 (stereo not drawn)	20
O=C(O)CCSc1nnc(COc2ccc([N+](=O)[O-])cc2)n1-c1ccccc1	3
COc1ccccc1NC(=O)Cn1nc(-c2ccncc2)nc1SCC(=O)NC1CCCC1	19
COc1ccc(N2CCN(C(=O)CCC(=O)c3cc(C)sc3C)CC2)cc1	12
C=CCC(Nc1ccccc1)c1ccc(OC)c(OC)c1 (stereo not drawn)	15
Cc1[nH]c(=O)c(C#N)c(C)c1Cc1ccc(Cl)cc1Cl	6
CCO[C@H]1OC(C(=O)N2CCN(Cc3ccccc3)CC2)=C[C@@H](C)[C@@H]1CCCO	15
COC(=O)c1c(NC(=O)COC(=O)[C@@H](NS(=O)(=O)c2ccc(C)cc2)C(C)C)sc2c1CCC2	16
COC(=O)c1ccc(OCC(=O)c2cccc(OC)c2)cc1	14
NC(=O)c1ccsc1NC(=O)c1ccc(S(=O)(=O)N2CCCc3ccccc32)cc1	3
Cc1nc2sccc2c(=O)n1N	2
COc1ccc(C(=O)CSc2nnc(CN3CCCCC3)n2-c2ccc(F)cc2)cc1	4
CNS(=O)(=O)c1cccc(C(=O)NCC2(N3CCOCC3)CCCCC2)c1	13
O=C1CCC/C(=N\NC(=O)c2ccc(COc3cccc4cccnc34)cc2)C1	15
CC(Sc1nncs1)C(=O)NCC(=O)Nc1ccc(F)c(F)c1F (stereo not drawn)	12
Cc1cccc(OCC(=O)NC(Cc2ccccc2)C(=O)O)c1 (stereo not drawn)	20
CCCC(CCC)=NNc1ccc(S(=O)(=O)Nc2ccccc2OC)cc1[N+](=O)[O-]	12

Overlap with the part before: five compounds; new compounds follow.
Structure	Biofilm kill mix
CNS(=O)(=O)c1cccc(C(=O)NCC2(N3CCOCC3)CCCCC2)c1	13
O=C1CCC/C(=N\NC(=O)c2ccc(COc3cccc4cccnc34)cc2)C1	15
CC(Sc1nncs1)C(=O)NCC(=O)Nc1ccc(F)c(F)c1F (stereo not drawn)	12
Cc1cccc(OCC(=O)NC(Cc2ccccc2)C(=O)O)c1 (stereo not drawn)	20
CCCC(CCC)=NNc1ccc(S(=O)(=O)Nc2ccccc2OC)cc1[N+](=O)[O-]	12
CC(C)C(=O)NNC(=O)c1csc(-c2cccs2)n1	1
COc1cc(/C=N/n2cnn(Cc3ccccc3Cl)c2=S)cc(OC)c1OC	11
CCOC(=O)CCc1c(C)n[nH]c1C	11
O=C(/C=C/c1cccs1)N1CCC2(CC1)Oc1ccc(F)cc1C(=O)C21CC(c2ccccc2)=NO1 (stereo not drawn)	7
CC(=O)Nc1ccc(NC(=O)Cn2cnc3c(nnn3Cc3ccc(F)cc3)c2=O)cc1	12
OC(CNCc1cccc(Cl)c1)c1ccccc1 (stereo not drawn)	-27
CCOC(=O)c1nn(-c2cccc(OC)c2)c2nc(Nc3ccccc3)cc(=O)n12	17
O=c1c(-c2ccc([N+](=O)[O-])cc2)coc2c(O)c(O)ccc12	9
CCC(=O)Nc1cc(C(=O)OCC(=O)c2ccccc2)ccc1C	2
Cc1ccc(/C=C2/N=C(c3ccccc3)NNC2=O)cc1	12
O=C(c1ccc(OCC2CCCO2)cc1)N1CCc2ccccc2C1 (stereo not drawn)	15
CC(=O)NCC(=O)OCC(=O)c1ccc(Br)cc1	11
COC(=O)/C(=C/c1ccco1)NC(=O)c1ccc(Br)o1	10
O=C(O)c1c2c(nc3ccccc13)/C(=C/c1ccc(O)cc1)CC2	14
NC(=O)Cc1ccc(C(=O)c2ccccc2F)s1	15
O=C(COc1ccccc1[N+](=O)[O-])NC1CC1	8
Cc1occc1-c1nnc(SCCNCCO)o1	-9
COc1cc(OC)cc(C(=O)Nc2cccc(-c3ccc4nncn4n3)c2)c1	1
COC(=O)c1cn(NC(=O)Cc2ccccc2OC)c(=O)c2ccccc12	23
CCCCc1nc2sc3c(c2c(=O)n1NC(=O)c1ccco1)CC(C)(C)OC3	30
CCCCC(CC)CNC(=O)CCCCn1c(=O)[nH]c2ccsc2c1=O (stereo not drawn)	9
FC(F)(F)c1cnc(-c2cnc(-c3ccncc3)nc2)c(Cl)c1	14
Cc1ccc(NC(=O)CNc2ccc(N3CCOCC3)cc2)cc1S(=O)(=O)N(C)C	15
Cc1cccc(NC(=S)N2CCN(Cc3ccccc3)CC2)c1C	4
COc1cccc(F)c1C(=O)NC(=O)Nc1ccc2nc(C)oc2c1	20
O=c1cc2c(=O)oc3cc(O)c(O)oc3c2c(O)c1O	13
CCOC(=O)CS(=O)(=O)CC(=O)Nc1ccc([N+](=O)[O-])cc1OC	8
O=C1CCCN1c1cccc(Br)c1	6
O=C1CC(C2CCCO2)C(=O)N1c1ccccc1 (stereo not drawn)	8
O=C(NCCc1ccccc1)C(=Cc1ccc(C(=O)O)cc1)C(=O)NCCc1ccccc1	15

Later entries.
Structure	Biofilm kill mix
Cc1csc2c(N3CCN(C(=O)Nc4ccc(OC(F)(F)F)cc4)CC3)ncnc12	21
C#CCN(CC=C)C(=O)CCc1nnc(COc2ccccc2)o1	22
COCCNC(=O)CN1C(=O)COc2ccc(Cl)cc21	6
O=C(CSc1nnc(-c2ccncc2)n1-c1ccc(F)cc1)NNC(=O)c1cccc(O)c1	12
Cc1ccnc(NC(=O)CSc2ccccn2)c1	0
O=C(c1cc2c(F)cccc2s1)N1CCCC1	6
Clc1ccc(-c2nnc(C3CC3)o2)cc1	10
O=C(CC(Nc1ccc(F)cc1)C(=O)OCC(=O)c1cccs1)c1ccccc1 (stereo not drawn)	17
COc1cc(/C=C/C(=O)OCC(=O)NCC2CCCO2)ccc1OCC#N (stereo not drawn)	11
Cc1cc(N)n(-c2ccc(C(=O)O)cc2)n1	17
CN1C(C(=O)NCc2ccco2)CC2Cn3c(nc4cc(Cl)c(Cl)cc43)C21 (stereo not drawn)	11
CCOc1ccc(NC(=O)c2ccc(NC(=O)c3cn4c5c(c(N6CCN(C)CC6)c(F)cc5c3=O)OCC4C)cc2)cc1 (stereo not drawn)	8
CCNC(=O)c1ccc(OCC(=O)Nc2ccc(F)cc2)c(OC)c1	18
CCCNC(=O)c1nn2cc(Br)cnc2c1Cl	6
CCOC(=O)c1nnn(-c2ccc([N+](=O)[O-])cc2)c1C	3
O=C(NNCC(O)COc1ccccc1)c1ccccc1 (stereo not drawn)	13
Cc1ccc2nsnc2c1NC(=O)c1ccccc1[N+](=O)[O-]	20
Cc1ccc(C(=O)COC(=O)CCCC(=O)NC2CCCCC2)cc1[N+](=O)[O-]	5
Cc1ccccc1Nc1nc(Cl)c(C=O)s1	-10
O=C(Cn1cnc2cc([N+](=O)[O-])ccc2c1=O)NCc1ccccc1	3
Cc1nc([N+](=O)[O-])cn1-c1ccc(N)cc1	12
O=[N+]([O-])c1ccc(S(=O)(=O)NCC(c2cccnc2)N2CCOCC2)cc1 (stereo not drawn)	18
CCCC(=O)Nc1cccc(S(=O)(=O)N(C)c2ccccc2)c1	6
COC(=O)c1sc(NC(=O)c2ccoc2C)nc1C	15
CC(/C=N/Nc1ccc2nncn2n1)=C\c1ccccc1	17
CC(=O)Nc1ccc(NC(=O)c2ccc(NS(=O)(=O)c3cc(C(C)(C)C)ccc3C)cc2)cc1	9
NC(=O)[C@@H]1CCCNc2c(F)cc([N+](=O)[O-])cc2C(=O)N[C@@H](CCC(=O)O)C(=O)N[C@@H](CO)C(=O)N1	7
CCn1c(SCC(=O)c2cc(C)ccc2C)nc2cc(S(=O)(=O)N3CCOCC3)ccc21	17
Cc1nc2ccccn2c1C(=O)NNC(=S)Nc1ccccc1	3
Cc1cc(C(=O)CN2C(=O)NC(C)(c3ccccc3)C2=O)c(C)n1CC1CCCO1 (stereo not drawn)	28

(cont.)
Structure	Biofilm kill mix
O=C(CSc1nnc(CCCOc2ccc(Cl)cc2Cl)o1)Nc1ccc(C(=O)O)cc1	1
CC(C(=O)Nc1cccnc1)n1cc([N+](=O)[O-])cn1 (stereo not drawn)	21
BrC(/C=N/N1CCN(Cc2ccccc2)CC1)=C/c1ccccc1	17
COC(=O)c1ccc(COc2ncnc3sccc23)cc1	12
Cc1ccc(N=Nc2c(C)[nH]n(-c3ccccc3)c2=O)cc1	15
CC(C)NS(=O)(=O)c1ccc(OCC(=O)N2CCN(c3ccccc3)CC2)cc1	12
Cc1ccc(C)c(NC(=O)C(c2ccccc2)N2CCOCC2)c1 (stereo not drawn)	-3
Cc1cccc(Cl)c1NC(=O)N1CCCN(c2ncccc2[N+](=O)[O-])CC1	24
Cc1ccc(/C=N/NC(=O)CSc2nnc(-c3ccccc3)n2-c2ccc(Cl)cc2)o1	6
COc1cc(NS(=O)(=O)c2ccc(NC(=S)NC(=O)c3ccco3)cc2)nc(OC)n1	10
CNS(=O)(=O)c1cc(C(=O)OCC(=O)NC2CCCc3ccccc32)ccc1Cl (stereo not drawn)	12
CC(/C=N/NC(=O)Cc1cccn1C)=C\c1ccccc1	11
CCCC[n+]1c(C)sc2ccc(C)cc21	26
O=C(COc1ccc(S(=O)(=O)NCc2ccccc2)cc1)N1CCOCC1	13
Cc1c(Cl)cccc1NC(=S)NCCc1ccc(C(F)(F)F)cc1	9
COc1ccc(N=Cc2nc(-c3ccco3)oc2O)cc1	9
NC(=O)C1CCN(C(=O)/C=C/c2ccco2)CC1	8
CN1CCC(CO)(Cc2ccccc2)CC1	15
O=C1c2ccccc2C(=O)c2cc(NC(=O)C3CC3)ccc21	7
Cc1c(C#N)c2ccccc2n1CC(=O)NCc1ccccc1	3
COc1ccc(C2N(c3ccc(C)cc3)CCN2c2ccc(C)cc2)cc1O	3
O=C(OC(c1ccccc1)c1nccc2ccccc12)c1cc([N+](=O)[O-])cc([N+](=O)[O-])c1 (stereo not drawn)	17
CCCCNC(=O)NNC(=O)c1ccc(F)cc1	22
COC(=O)c1scc2c(Oc3ccccc3)cc(C(F)(F)F)nc12	8
CS(=O)(=O)n1nc(OC(=O)c2cccs2)cc1N	12
CCCCOc1ccc(C(=O)NCCc2cccs2)cc1	12
CCOc1ccc(N(C(=O)C2CCCO2)C2C=CS(=O)(=O)C2)cc1 (stereo not drawn)	6
COc1ccc(N2CCN(C(=O)c3c(C)nn(-c4ccccc4)c3C)CC2)cc1	8
O=S(=O)(c1ccc(F)cc1)N1CCN(C(=S)NC2CCCC2)CC1	13
COc1ccc(NC(=O)Nc2ccc3oc(C)nc3c2)cc1	6

Structures shown so far with a cyano group, in the order listed:
Structure	Biofilm kill mix
N#Cc1ccc(C(=O)Nc2cccc(NC(=O)c3ccco3)c2)c(F)c1	4
Cc1[nH]c(=O)c(C#N)c(C)c1Cc1ccc(Cl)cc1Cl	6
COc1cc(/C=C/C(=O)OCC(=O)NCC2CCCO2)ccc1OCC#N (stereo not drawn)	11
Cc1c(C#N)c2ccccc2n1CC(=O)NCc1ccccc1	3

Next section:
Structure	Biofilm kill mix
OCCn1c(-c2ccccc2)csc1=Nc1ccccc1	12
CC(/C=N/N1C(=O)CSC1=S)=C\c1ccccc1	13
Cn1c(CN2CCCC2)nc2cc(NC(=O)c3cccs3)ccc21	9
COc1cccc(/C=C2\SC(=N)N(c3ccc(F)cc3)C2=O)c1	4
O=C(C=C=Nc1ccccc1)C(=O)N=C=Cc1ccccc1	10
O=C(Nc1ccc(CN2CCCCC2)cc1)Nc1ccccc1Cl	-13
CN(c1ccc(OCC(=O)NC2=NCCS2)cc1)S(=O)(=O)c1ccc(F)cc1	17
Cc1ccc2c(c1)N(CCCC(=O)NCc1cccnc1)C(=O)CO2	19
COc1ccc(N2CCN(Cc3nc4ccccc4n3C)CC2)cc1	5
CC(C)Cn1c(=O)c(C(=O)N/N=C/c2cccc(F)c2)c(O)c2ccccc21	-9
CCNS(=O)(=O)c1ccc(NC(=O)c2ccc(Cn3cc(Br)cn3)o2)cc1	13

High-throughput results (PubChem BioAssay)
